Mtb betalactam: beta-lactam sensitization of Mtb H37Rv | M. tuberculosis H37Rv growth with meropenem, percent inhibition; hits of this screen are not shown here | inhibition, % at 25 µM | actives 0.27% (n = 330,000);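 active = about 74% or more and at least 40 points above the plate without the antibiotic, then above 30% in a dose series; inconclusive = first-round hits that could not be retested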;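 note: growth measured after seven days incubation then overnight dye step; 0% = bacteria only wells and 100% = bacteria with antibiotic; twin plates without the antibiotic show which effects depend on it; some results filed as inactive read as strong as hits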
Numbers without * were called inactive. Not all compounds are listed; rates above refer to the full screens.

`C#CCOCCOCCOCCNc1nc(N2CCN(C(=O)CCCCCCCCCCNC(=O)[C@@H](CCSC)n3cc(CCO)nn3)CC2)nc(N2CCN(C(=O)CCCCCCCCCCNC(=O)[C@H](CO)n3cc(CCCCCN)nn3)CC2)n1` gave Mtb betalactam 57.
`CCOC(=O)[C@H]1[C@H]2COc3ccccc3[C@@H]2N2C(=O)c3cc(C)ccc3NC(=O)[C@@]12C` gave Mtb betalactam 2.
For C[C@@]12C(=O)Nc3ccccc3C(=O)N1[C@H]1c3cc(Cl)ccc3OC[C@@H]1[C@@H]2c1ccccc1 the results were Mtb betalactam 11.
CCN(CC)S(=O)(=O)c1cc(NC(=O)CO/N=C(\N)c2ccccc2Cl)ccc1C was read as Mtb betalactam 1.
For Cc1onc(-c2ccccc2)c1C(=O)OCC(=O)Nc1ccc(Cl)cc1 the results were Mtb betalactam -1.
CC(C)C(NC(=O)c1c(F)cccc1F)C(=O)OCN1C(=O)c2ccccc2C1=O (stereo not given) was read as Mtb betalactam -2.
`Cn1cccc1C(=O)OCC(=O)Nc1ccc2c(c1)OCCO2` gave Mtb betalactam -7.
Screening Cn1cc(S(=O)(=O)N2CCNCC2)cc1C(N)=O returned Mtb betalactam -8.
CCOC(=O)c1cccc(-n2cccc2/C=C2\NC(=O)N(CC(=O)O)C2=O)c1 was read as Mtb betalactam -3.
For O=C(Nc1ccccc1F)c1ccc(S(=O)(=O)N2CCCCCC2)cc1 the results were Mtb betalactam 3.
CC(NC(=O)c1ccco1)C(=O)OCc1cccc(C(F)(F)F)c1 (stereo not given) was read as Mtb betalactam 2.
For CCOc1ccc(C(=O)N2CCN(CC(=O)N3CCCC3)CC2)cc1OCC the results were Mtb betalactam -6.
For Cc1cc(NC(=O)CSCC(=O)Nc2cc(C(F)(F)F)ccc2N2CCOCC2)no1 the results were Mtb betalactam -3.
Screening Cc1ccccc1CN1CCCC(C(=O)Nc2ccc(-c3ccn[nH]3)cc2)C1 (stereo not given) returned Mtb betalactam -3.
`O=C(COc1ccc(Oc2ccccc2)cc1)NC1CCS(=O)(=O)C1` (stereo not given) gave Mtb betalactam 5.
COc1ccc(CC(=O)Nc2nccs2)cc1S(=O)(=O)N1CCOCC1 was read as Mtb betalactam 2.
For CCOC(=O)C1CCN(C(=O)COC(=O)c2ccccc2OCC)CC1 the results were Mtb betalactam -7.
Screening CCOc1cc(OCC)c(C(C)=O)cc1OCC returned Mtb betalactam 12.
Screening NCCN1CCN(S(=O)(=O)c2ccc([N+](=O)[O-])cc2)C=C1c1ccc(Cl)cc1 returned Mtb betalactam -6.
Screening NC(=O)c1nsc(C(=O)N(c2ccccc2)C(C(=O)NCC2CCCO2)c2ccc3ncccc3c2)c1N (stereo not given) returned Mtb betalactam -2.

Reprinted at random: 4 compounds from above, in no set order.
For CCOc1ccc(C(=O)N2CCN(CC(=O)N3CCCC3)CC2)cc1OCC the results were Mtb betalactam -6.
COc1ccc(CC(=O)Nc2nccs2)cc1S(=O)(=O)N1CCOCC1 was read as Mtb betalactam 2.
For CCOC(=O)C1CCN(C(=O)COC(=O)c2ccccc2OCC)CC1 the results were Mtb betalactam -7.
Screening NC(=O)c1nsc(C(=O)N(c2ccccc2)C(C(=O)NCC2CCCO2)c2ccc3ncccc3c2)c1N (stereo not given) returned Mtb betalactam -2.

New compounds follow:
Screening O=C(CN1c2cccc3cccc(c23)S1(=O)=O)NCCc1ccccc1 returned Mtb betalactam -4.
For Cn1nnnc1Sc1ncnc2scc(-c3ccccc3C(F)(F)F)c12 the results were Mtb betalactam -5.
`O=C(c1ccccn1)N1CCN(S(=O)(=O)c2cccc(Br)c2)CC1` gave Mtb betalactam -3.
Screening O=C(CN1C(=O)C(=O)N(C2CCCC2)C1=O)NCCc1ccc(Cl)cc1Cl returned Mtb betalactam 3.
`O=C(NCCC(=O)N1CCN(S(=O)(=O)c2ccccc2F)CC1)Nc1ccccc1` gave Mtb betalactam 1.
`COc1ccc(S(=O)(=O)N2CCN(C(=O)C3CC3)CC2)cc1` gave Mtb betalactam -7.
For CN(C(=O)CN1C(=O)NC(c2ccccc2)(c2ccccc2)C1=O)C1CCS(=O)(=O)C1 (stereo not given) the results were Mtb betalactam -9.
Screening Cc1cc(C)c(NC(=O)CNC(=O)[C@@H]2CCCN2C(=O)c2cccs2)c(C)c1 returned Mtb betalactam 2.
Screening CCC1(c2ccc(Cl)cc2)NC(=O)N(CC(=O)NC2(C#N)CCCCC2)C1=O (stereo not given) returned Mtb betalactam 5.
Screening CC(C)[C@H](NC(=O)c1ccc(Cl)cc1)C(=O)OCC(=O)N1CCN(c2ccccc2)CC1 returned Mtb betalactam 92.
Screening O=C(CNC(=O)c1ccccc1F)NCC(c1cccs1)N1CCOCC1 (stereo not given) returned Mtb betalactam -2.
Screening O=C(CN1C(=O)NC2(CCCCC2)C1=O)Oc1ccc2ccc(=O)oc2c1 returned Mtb betalactam -5.
Nc1nc(N)nc(Cc2ccccc2O)n1 was read as Mtb betalactam 3.
`FC(F)(F)c1ccccc1NC1=NCCCS1` gave Mtb betalactam -5.
`CN(CC(=O)Nc1ccc(C(N)=O)cc1)S(=O)(=O)c1ccc2c(c1)OCCO2` gave Mtb betalactam -1.
O=C(NN=Cc1ccc(OC(F)F)cc1)c1ccc(NS(=O)(=O)c2cccs2)cc1 was read as Mtb betalactam 3.
Screening COc1ccc(C(=O)N(C)C(C)c2ccon2)cc1OC1CCN(C(C)C)CC1 (stereo not given) returned Mtb betalactam 2.
`O=C1CN(C(=O)COC(=O)c2c(F)cccc2Cl)c2ccccc2N1` gave Mtb betalactam 2.
`O=C(/C=C/c1cccs1)NNC(=O)c1ccccc1` gave Mtb betalactam 1.
Screening Cc1c(C(=O)NCc2ccccn2)oc2c(Cl)cccc12 returned Mtb betalactam -6.

Ordered by count of non-hydrogen atoms (lowest first): four of the compounds above
`O=C(c1ccccn1)N1CCN(S(=O)(=O)c2cccc(Br)c2)CC1` gave Mtb betalactam -3.
Screening O=C(CN1c2cccc3cccc(c23)S1(=O)=O)NCCc1ccccc1 returned Mtb betalactam -4.
Screening COc1ccc(C(=O)N(C)C(C)c2ccon2)cc1OC1CCN(C(C)C)CC1 (stereo not given) returned Mtb betalactam 2.
For CN(C(=O)CN1C(=O)NC(c2ccccc2)(c2ccccc2)C1=O)C1CCS(=O)(=O)C1 (stereo not given) the results were Mtb betalactam -9.

The listing picks up with the 3 entries that preceded the break.
`O=C1CN(C(=O)COC(=O)c2c(F)cccc2Cl)c2ccccc2N1` gave Mtb betalactam 2.
`O=C(/C=C/c1cccs1)NNC(=O)c1ccccc1` gave Mtb betalactam 1.
Screening Cc1c(C(=O)NCc2ccccn2)oc2c(Cl)cccc12 returned Mtb betalactam -6.
O=C(COC(=O)c1ccc(Br)cc1)NCC1CCCO1 (stereo not given) was read as Mtb betalactam 0.
Screening COc1ccc(NC(=O)c2ccc3c(c2)C(=O)N(Cc2ccncc2)C3=O)cc1S(N)(=O)=O returned Mtb betalactam 6.
For CCOc1cc(C(=O)Nc2cc(C(=O)OC)ccc2C)ccc1OCC(=O)N1CCOCC1 the results were Mtb betalactam 2.
COc1ccc(CN(C)C2CCN(C)CC2)cc1OC was read as Mtb betalactam -7.
Screening Cc1sc2ncnc(N3CCC(C(=O)Nc4ccc(OC(F)F)c(Cl)c4)CC3)c2c1C returned Mtb betalactam -3.
Screening O=S(=O)(NC1=NCCCCC1)c1ccc(F)cc1F returned Mtb betalactam -12.
CN1CCN(c2oc(-c3ccccc3F)nc2S(=O)(=O)c2ccc(Cl)cc2)CC1 was read as Mtb betalactam inconclusive.
C=C1C(O)[C@@H]2O[C@]3(CC[C@H](/C=C/C(C)[C@@H]4CC(C)=CC5(O[C@H](C[C@@](C)(O)CO)CCC5O)O4)O3)CC[C@H]2O[C@@H]1C(O)CC(C)[C@H]1OC2(CCCCO2)CCC1C (stereo not given in full) was read as Mtb betalactam 5.
`COc1ccc(CCN2CC(C(=O)N3CCC(O)(c4ccccc4)CC3)CCC2=O)cc1` (stereo not given) gave Mtb betalactam inconclusive.
`CCOc1ccc(NC(=O)CCC(=O)NNC(=O)c2cccc([N+](=O)[O-])c2)cc1` gave Mtb betalactam -3.
For CSc1ccc(CN2CCN(c3ccccc3C)CC2)cc1 the results were Mtb betalactam -9.
`Cc1onc(-c2ccccc2)c1C(=O)Nc1ccc(C(=O)N2CCCCC2)cc1` gave Mtb betalactam 12.
Cc1ccc(-c2nn(Cc3ccccc3)cc2C(=O)N2CCN(c3ccccn3)CC2)cc1 was read as Mtb betalactam 2.
`O=S(=O)(Nc1ccc2c(c1)OCO2)c1ccc(Cl)cc1F` gave Mtb betalactam 6.
`COc1ccccc1OCC(=O)N/N=C/c1c(O)ccc2ccccc12` gave Mtb betalactam 2.
CCCN(C(=O)C1CC(=O)N(c2ccccc2C(C)CC)C1)C1CCS(=O)(=O)C1 (stereo not given) was read as Mtb betalactam 1.
Screening COCCN(Cc1ccccc1)C(=O)C1CCN(S(=O)(=O)c2ccc3c(c2)OCCO3)CC1 returned Mtb betalactam 5.
`COC(=O)C1=C(c2cccc(C#N)c2)C[C@@H]2CC[C@H]1N2C(=O)N1CCCC1` gave Mtb betalactam -3.
`COc1cc(-c2ccccc2)[nH]c(=S)n1` gave Mtb betalactam -7.
Screening COc1ccc2sc(-c3ccccc3OC)c(C#CC(C)(C)O)c2c1 returned Mtb betalactam 32.
COc1ccc(-c2c(C#Cc3ccsc3)c3cc(-c4cccc5[nH]ccc45)ccc3n2C)cc1 was read as Mtb betalactam 4.
`O=C(COC(=O)CCS(=O)(=O)c1ccccc1)Nc1ccccc1` gave Mtb betalactam -2.
`Cn1nnnc1Sc1ncnc2scc(-c3cccc4c3sc3ccccc34)c12` gave Mtb betalactam 28.
Cc1cc(C)nc(SCC(=O)c2ccc(F)c(C)c2)n1 was read as Mtb betalactam 2.
COc1ccc2sc(-c3ccc(S(C)(=O)=O)cc3)c(C#CCO)c2c1 was read as Mtb betalactam 2.
For Cc1cc(NC(=O)Cn2cnc3sc(C)c(C)c3c2=O)no1 the results were Mtb betalactam 6.
For Cc1noc(C)c1COc1ccc(C(=O)OCC(=O)Nc2ccc(S(N)(=O)=O)cc2)cc1 the results were Mtb betalactam 0.
`Cc1ccc2c(c1)[C@@H]1[C@H](CO2)[C@H](c2ccccc2)[C@@]2(C)C(=O)N[C@H](C)C(=O)N12` gave Mtb betalactam 1.
For CCN(c1ccccc1)S(=O)(=O)c1ccc(C(=O)Nc2cc(C)ccn2)cc1 the results were Mtb betalactam -1.
Screening O=C(OCC(O)CO)c1ccccc1Nc1ccnc2cc(Cl)ccc12 (stereo not given) returned Mtb betalactam 2.
COc1cc2c(C(F)(F)F)c(-c3ccc(C#N)cc3)oc(=O)c2cc1OC was read as Mtb betalactam 2.
`CN1CCN(S(=O)(=O)c2ccccc2)C(c2ccccc2)C1` (stereo not given) gave Mtb betalactam 0.
For COc1ccc(CN(C)C(=O)Cn2ccc(N)nc2=O)cc1OC the results were Mtb betalactam -4.
`COc1ccc([C@H]2CC(=O)C=C(c3ccc(O)cc3)C2)cc1OC` gave Mtb betalactam 64.
For CC(=O)N1c2ccccc2C2CCCC[C@@H]21 (stereo not given in full) the results were Mtb betalactam 5.
`CC1=NN=C(c2ccc(N)cc2)c2cc3c(cc2C1)OCO3` gave Mtb betalactam 2.
COc1ccc(C)cc1NC(=O)CN1CCCC1c1ccc2c(c1)OCCCO2 (stereo not given) was read as Mtb betalactam 7.
Screening CC(=O)Nc1ccc(C(=O)OCC(=O)NCc2cccs2)cc1 returned Mtb betalactam 4.
Screening CCc1nnc(NS(=O)(=O)c2ccc(NC(=O)c3ccc(C#N)cc3)cc2)s1 returned Mtb betalactam 4.
Screening COc1cccc(CC(=O)NNC(=O)CN(C)S(=O)(=O)c2ccc(C)cc2)c1 returned Mtb betalactam -12.
For CC1CCCCC12NC(=O)N(CC(=O)N1CCc3ccccc31)C2=O (stereo not given) the results were Mtb betalactam 4.
Screening C=CCN(c1ccccc1OC)S(=O)(=O)c1cccc(C(=O)NCc2ccco2)c1 returned Mtb betalactam -7.
For COc1ccc(S(=O)(=O)N2CCN(CC(=O)Nc3c(C)n[nH]c3C)CC2)cc1OC the results were Mtb betalactam -6.
For Cc1ccc(NC(=O)CCNC(=O)N2C[C@H]3C[C@@H](C2)c2cccc(=O)n2C3)c(C)c1 the results were Mtb betalactam -7.
For COc1ccccc1NC(=O)c1ccc2c(c1)N(CC(=O)NC(C)(C)C)C(=O)C(C)(C)O2 the results were Mtb betalactam -3.
COc1ccccc1C1=CC(=O)C[C@H](c2ccc(Cl)cc2)C1 was read as Mtb betalactam 12.
`CC(=O)c1ccc(S(=O)(=O)N2CCN(CC(=O)Nc3ccc(Cl)c([N+](=O)[O-])c3)CC2)cc1` gave Mtb betalactam 66.
CCCCNc1c(-c2ccc(OC)c(SC3CCCCC3)c2)nc2ccc(C)cn12 was read as Mtb betalactam 89.
CSCCC(NC(=O)c1ccccc1)C(=O)NCCCSc1ccccc1 (stereo not given) was read as Mtb betalactam -5.
`CC(CC(=O)Nc1cc(S(=O)(=O)N2CCOCC2)ccc1OCC(F)(F)F)c1ccccc1` (stereo not given) gave Mtb betalactam -1.
COC(=O)C1=C(c2ccc(F)cc2F)C[C@@H]2CC[C@H]1N2C(=O)N1CCOCC1 was read as Mtb betalactam 3.
Cc1cc(O)cc2c1O[C@@](C)(CCC[C@@H](C)CCC[C@@H](C)CCCC(C)C)CC2 was read as Mtb betalactam 14.
`COc1ccc(OC)c(C2=CC(=O)C[C@H](c3ccc4c(c3)OCO4)C2)c1` gave Mtb betalactam 45.
`CN(C(=O)CSc1nnc(-c2cccs2)n1N)c1ccccc1` gave Mtb betalactam -5.

Screening data: PubChem, Southern Research Specialized Biocontainment Screening Center
